Biofilm kill mix – clotrimazole potentiators killing C. albicans biofilm, primary screen, 4-compound mixtures. C. albicans biofilm persisters + clotrimazole, fluorescence viability; primary screen in compound mixtures of four per well. inhibition, % at 7.6 µM. 120,000 compounds, 0.02% hits;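 active = inhibition above 30.3% in the primary screen of four-compound pools, then above 30% when the compound was retested; inconclusive = passed the primary limit but could not be retested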;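 note: compounds exposed to preformed 24 h biofilms for 48 h; the number belongs to the whole pool; some results filed as inactive read as strong as hits; inactives centre near 12; 0% = biofilm with clotrimazole alone and 100% = kill control; retested singly at about 60 µM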
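Test system: C. albicans CAF4-2 wild-type biofilms; buffer or medium: RPMI/MOPS medium, pH 7.0; schedule: 24 h biofilm formation, then 48 h compound exposure, 37 °C; detection: Alamar Blue fluorescence; measure: percent inhibition of biofilm viability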
Active calls of the source: *; u = inconclusive. These rows are one share of the data; rates above refer to the full screens.

mol	Biofilm kill mix
Cc1ccc(C)c(C2=NNC(=NCc3ccccc3)SC2)c1	6
c1ccc(-c2ccc(-c3nccc4ccccc34)[nH]2)cc1	17
Cc1ccccc1N=C1NC(=O)/C(=C/c2cccn2-c2cccc(C(=O)O)c2)S1	6
CCCC(C)NC(=O)COC(=O)c1ccccc1SCC(=O)NC(C)CCC (stereo not drawn)	12
O=C(N/N=C/c1cccc(OC(=O)c2ccc3c(c2)OCO3)c1)c1cncc(Br)c1	-6
O=[N+]([O-])c1cc(C(F)(F)F)cc([N+](=O)[O-])c1NCCNC(=S)Nc1ccc(Cl)c(Cl)c1	9
COc1ccc2cc(C)c3nnc(SCC(=O)Nc4nc(-c5ccc(F)cc5)cs4)n3c2c1	7
Cc1c(C(=O)O)c(C(=O)O)nc2ccc(N3CCOCC3)cc12	-7
Cc1nc2ccc(N=NC3=C(O)CC(C)(C)CC3=O)cc2s1	-4
CCOC(=O)C(C)(C)N(Cc1cccc(C)c1)S(=O)(=O)c1cccc([N+](=O)[O-])c1	-4
O=C(CNc1cccc([N+](=O)[O-])c1)N/N=C/c1ccc(F)cc1	17
CCn1c(SCC(=O)N/N=C(/C)c2ccncc2)nc2ccccc21	22
Cc1ccc(C)c(Cn2c(C)nc3c(sc(=S)n3-c3ccccc3)c2=O)c1	17
O=[N+]([O-])c1ccccc1S(=O)(=O)N1CCN(CC2CC=CCC2)CC1 (stereo not drawn)	15
CS(=O)(=O)c1ccc2nc(NC(=O)CCN3C(=O)c4ccccc4C3=O)sc2c1	13
CCOC(=O)c1ccc2c(c1)[nH]c(=S)n2CC	12
Cc1ccc(C(=O)CSc2nnnn2-c2ccccc2)o1	6
C[C@]12CS(=O)(=O)C[C@H]1SC(=S)N2c1ccccc1	4
COc1ccc(N(CCC#N)C(=O)/C(C#N)=C/c2cccs2)cc1	11
CCOC(=O)CC(NC(=O)Cn1nnc(-c2ccccc2C)n1)c1ccc(OC)cc1 (stereo not drawn)	10

Gathered by group, the entries above containing an NH in an aromatic ring.
mol	Biofilm kill mix
c1ccc(-c2ccc(-c3nccc4ccccc34)[nH]2)cc1	17
CCOC(=O)c1ccc2c(c1)[nH]c(=S)n2CC	12

Next section.
mol	Biofilm kill mix
Cc1cc(NCc2ccccn2)n2ncc(-c3ccc(Cl)cc3)c2n1	16
O=C(Cc1cccc2ccccc12)NNC(=O)Nc1ccc(Cl)cc1	23
CCCN1CCC(=NNc2ccc(S(=O)(=O)N3CCOCC3)cc2[N+](=O)[O-])CC1	16
Cc1onc(NC(=O)c2ccc(Cl)cc2Cl)c1Br	16
O=C(Nc1ncc2c(n1)-c1ccccc1CC2)c1cccs1	19
O=C(O)c1cccc(-n2c(-c3cnccn3)n[nH]c2=S)c1	6
O=C1OCC/C1=C\c1ccc2c(c1)OCO2	18
N#Cc1ccccc1COc1ccc(/C=C/C(=O)O)cc1	12
Cc1cccc(N2C(=O)/C(=C/c3cccnc3)SC2=S)c1	18
Cc1ccc(/C=C/C(=O)O)cc1S(=O)(=O)NCC1CCCO1 (stereo not drawn)	5
CN(CCOC(=O)c1ccc2c(c1)OCO2)C(C)(C)C	19
COc1cc(N=C2C(=O)N3c4c(cccc42)C(C)=CC3(C)C)cc(OC)c1	9
CCOC(=O)c1ccc(CNCc2ccccc2)cc1	13
Cc1ccc(O)c(C(=O)c2cnc3c(c2)c(=O)n(C)c(=O)n3C)c1	14
O=C(NCCCO)/C(=C\c1ccco1)NC(=O)c1ccc(Br)o1	13
O=C(Cn1c(=O)n(-c2ccc(F)cc2)c(=O)c2sccc21)NC1CCCCC1	5
COc1ccccc1NS(=O)(=O)c1ccc(NC(=O)c2ccncc2)cc1	13
CCNC(=O)COC(=O)c1sccc1C	14
CCOC(=O)C1=C(C)NC(=O)NC1c1ccc(OCC(N)=O)cc1 (stereo not drawn)	9
CCc1ccc(N(C(=O)CCC(=O)Nc2cc(C)on2)C(C(=O)NC2CCCC2)c2ccco2)cc1 (stereo not drawn)	5

Rewritten with each value named: two of the compounds above.
O=C(NCCCO)/C(=C\c1ccco1)NC(=O)c1ccc(Br)o1
- Biofilm kill mix = 13
O=C(Cn1c(=O)n(-c2ccc(F)cc2)c(=O)c2sccc21)NC1CCCCC1
- Biofilm kill mix = 5

3 structures already listed, arranged by formula weight, descending.
mol	Biofilm kill mix
COc1ccccc1NS(=O)(=O)c1ccc(NC(=O)c2ccncc2)cc1	13
CN(CCOC(=O)c1ccc2c(c1)OCO2)C(C)(C)C	19
CCNC(=O)COC(=O)c1sccc1C	14

Next records follow:
mol	Biofilm kill mix
O=C1N=C(N2CCOCC2)S/C1=C1\C(=O)N(Cc2ccccc2)c2ccccc21	6
O=C(c1nc2ccccn2c1CNCCCn1ncc2ccccc21)N1CCCC1	13
Cc1cccc(/C=N/n2c(-c3ccco3)n[nH]c2=S)c1	23
COc1cccc(C=Nc2cccc3c(=O)[nH][nH]c(=O)c23)c1O	20
Fc1cccc(NC(=S)NCc2cccnc2)c1	15
Fc1cccc(/C=N/Nc2ccc3ccccc3n2)c1	-6
N#CC1=C(N)Oc2n[nH]c(-c3cccs3)c2C1c1ccccc1C(=O)O (stereo not drawn)	12
O=C(/C=C/NCC(=O)c1ccccc1)c1ccc(Br)cc1	12
C/C(=N\NC(=O)CN(c1ccc(C)cc1)S(C)(=O)=O)c1cccs1	7
O=C(CCc1nc2ccccc2c(=O)[nH]1)N1CCN(c2ccc(F)cc2)CC1	8
CCCc1nnc(NC(=O)CCC(=O)NCc2ccc(OC)cc2)s1	20
COc1c(Br)cc2c(C)c(C(=O)O)oc2c1Br	12
Cc1nn2c(CN(C(=O)COc3ccccc3)c3ccccc3)nnc2c2ccccc12	12
CN(C)Cc1nc2ccccc2c(=O)n1CC(=O)Nc1cccc(S(=O)(=O)N2CCOCC2)c1	11
Cc1cnc(NC(=O)c2ccncc2)s1	1
Cc1ccc(S(=O)(=O)Oc2ccccc2/C=N/NC(=O)c2nn(C)cc2[N+](=O)[O-])cc1	14
COc1cccc(C2CC(=O)Nc3cc4c(cc32)CCC4)c1 (stereo not drawn)	12
CS(=O)(=O)Oc1ccc(/C=N/NC(=O)c2ccncc2)cc1	9
CC(C)CC(O)(CC(C)C)C(=O)NNc1ccccc1	12
COc1cc(CO)cc(Br)c1OCC(=O)Nc1cccc2ccccc12	14
COc1ccc(OC)c(-n2nnnc2SCC(=O)Nc2ccccc2N2CCOCC2)c1	13
COc1ccc(S(=O)(=O)N(CC(=O)NCc2cccnc2)Cc2ccccc2)cc1	1
C/C(CC(=O)Nc1ccc(Cl)cc1C(F)(F)F)=N\NC(N)=S	23
O=C(NCc1cccnc1)C1CCN(c2ccc(S(=O)(=O)N3CCOCC3)cc2Cl)CC1	17
CC1=C(C#N)C(=O)N(C2CCS(=O)(=O)C2)C(=O)/C1=C\c1ccc(C)o1 (stereo not drawn)	u
CN(C)C1=NCC(CSC(=N)N)S1 (stereo not drawn)	4
CC(c1ccccc1C(O)(c1ccccc1)c1ccccc1)N(C)C (stereo not drawn)	9
N#Cc1ccc(N/N=C/c2ccccc2)c([N+](=O)[O-])c1	17
CC(C)CC1=NC(C(F)(F)F)(C(F)(F)F)c2c(n(CC(C)C)c(=O)[nH]c2=O)N1	16
CN(C)S(=O)(=O)c1cccc(NC(=O)c2cc(-c3cccs3)nn2-c2ccccc2)c1	19
CN(C)c1cc[n+](CC(=O)Nc2ccc(Oc3ccccc3)cc2)cc1	-1
Oc1ccc(N2CCN(c3nnnn3-c3ccccc3)CC2)cc1	11
O=C(O)CNS(=O)(=O)c1ccc2[nH]c(=O)c(=O)[nH]c2c1	-3
O=C1NN(c2ccccc2)C(=O)/C1=C\c1coc2ccc(O)cc2c1=O	17
N#C/C(=N\Nc1ccc([N+](=O)[O-])cc1)C(=N)N1CCOCC1	15
Cc1onc(-c2c(F)cccc2Cl)c1C(=O)Nc1sc2c(c1C#N)CCC(C(C)(C)C)C2 (stereo not drawn)	12
Fc1ccc(-c2csc(-c3ccc(C4SCCS4)cc3)n2)cc1F	14
COc1ccc2cc(C(N)=O)c(=Nc3ccc(C)cc3)oc2c1	13
O=C1NC(=Nc2ccccc2)/C(=C/c2ccco2)S1	1
CCNC(=S)N1CCN(CCN=CC2=C(O)CC(C)(C)CC2=O)CC1	17
CCOC(=O)c1sc(NC(=O)C2CCC2)cc1C	-2
O=C(CCC1CCCC1)Nc1ccc(OCC(=O)N2CCOCC2)cc1	15
O=C(CN1CCCCCC1)N/N=C/c1ccc(Cl)c(Cl)c1	15
CCn1c(O)c(/C=C2\C=NN=C2c2ccc(C)cc2)sc1=S	9
COc1cc(S(=O)(=O)Nc2cccc(C)c2)ccc1NC(=O)c1ccncc1	15
S=C(NCc1ccc2c(c1)OCO2)NCc1ccc2c(c1)OCO2	6
CCN(c1ccccc1)S(=O)(=O)c1ccc(Cl)c(NC(=O)COC(=O)c2cccc(OC)c2O)c1	22
CS(=O)(=O)N1CCC(Oc2ccccc2C(=O)NC(C2CC2)C2CC2)CC1	-2
COc1ccc(N(C(C)C(=O)N/N=C/c2cc(Br)c(C)o2)S(C)(=O)=O)cc1 (stereo not drawn)	12
O=C(Nc1cc(S(=O)(=O)N2CCOCC2)ccc1N1CCOCC1)c1cc2c(s1)CCC2	15

Additional records follow:
mol	Biofilm kill mix
CCN(CC)c1nc(C)c(C(=S)Nc2cc([N+](=O)[O-])ccc2Cl)s1	16
S=C(NCCc1c[nH]c2ccccc12)NC1CCCC1	9
O=C(NCCN1CCOCC1)/C(=C\c1ccc(Br)cc1)NC(=O)c1cccs1	17
Cc1n[nH]c(=S)n1Cc1ccccc1	19
S=C1NC[C@H](Cc2ccccc2)N1CCc1cccc2ccccc12	13
CCCCN=C1NN=C(c2cc3ccccc3o2)CS1	7
O=C(Nc1ccc(Cl)cc1)Nc1nc(-c2ccccc2O)cs1	25
O=C(CN1CCN(c2ccc(O)cc2)CC1)Nc1cc(S(=O)(=O)N2CCOCC2)ccc1Cl	10
Cc1cccc(-c2n[nH]c(=S)n2-c2ccccc2)c1[N+](=O)[O-]	17
Cc1c(/C=N\NC(=O)C2(C)CC2(Cl)Cl)cnn1C (stereo not drawn)	14
COc1cc(/C=N/NC(N)=O)ccc1OC(=O)c1cccs1	7
Cc1cccc(NC(=O)C(=O)N/N=C/c2ccncc2)c1	13
CCOc1nc(Nc2ccc([N+](=O)[O-])cc2)nc(NC(C)(C)C)n1	16
Cc1nn(C)c(C)c1CN(C)S(=O)(=O)c1ccc2ccccc2c1	14
Cc1cc(C(=O)N/N=C2\CC(=O)c3ccccc32)c(C)n1-c1ccccc1	10
NC(=O)C1=C[C@H](c2coc3ccccc3c2=O)C[C@H](OCCCCO)O1	18
COC(=O)C1CCN(C(=O)CSc2ccccc2)CC1	8
COCCCNC(=S)Nc1c(C)cc(C)cc1C	13
O=C(CN1CCCc2ccccc21)NCCc1ccc(F)cc1	-2
Cc1ccc(S(=O)(=O)NCC(=O)N(CC(=O)NCC2CCCO2)Cc2ccco2)cc1 (stereo not drawn)	9
CSc1nnc(-c2ccc([N+](=O)[O-])cc2)o1	20
c1ccc2sc(Sc3ncnc4sccc34)nc2c1	15
COc1ccc(N(CC(=O)Nc2cc(C)ccc2C)S(=O)(=O)c2ccccc2[N+](=O)[O-])c(OC)c1	10
COc1ccc(-c2csc3nc(C)nc(N4CCC(C)CC4)c23)cc1OC	17
Cc1cc(C)c(NC(=O)C2c3ccccc3Oc3ccccc32)c(C)c1	10
COc1cc2ncnc(NCCc3ccccc3)c2cc1OC	-1
O=C(CSc1nnc(-c2ccccc2)c(-c2ccccc2)n1)NC1CCS(=O)(=O)C1 (stereo not drawn)	9
Cc1nnc(NN2CCOCC2)[nH]c1=O	25
Nc1c(C(=O)Nc2ccc(Cl)c(Cl)c2)sc2nc(-c3cccnc3)ccc12	6
CCC(C)[C@H](NC(=O)Nc1ccc(S(N)(=O)=O)cc1)C(=O)O (stereo partly drawn)	4
COC(=O)C1=C(C(=O)OC)[C@@H]2N(Cc3ccccc3)c3ccccc3[C@@]23C[C@@H](C(=O)OC)N(C(=O)CC(C)C)C3=N1	13
Cc1cccc(C)c1N=C1NN=C(c2ccccc2F)CS1	0
COC1=C(c2ccccc2)C(=O)c2ccccc2C1=O	14
CCN(CC)Cc1c(O)ccc2c1O/C(=C\C=C\c1ccccc1)C2=O	27
O=C(OCc1ccccc1)N1CCOCCN(C(=O)OCc2ccccc2)CCOCC1	10
COc1cccc2cc(C(=O)NCCc3c[nH]c4ccccc34)c(=O)oc12	14
CCc1ccc(/C=N\NC(=O)c2ccc(Br)o2)s1	16
COc1cc(CNc2nnnn2C)ccc1OCc1ccc(F)cc1Cl	26
CC1=C(C(=O)Nc2ccccc2)C(c2coc3ccccc3c2=O)C2=C(CCCC2=O)N1 (stereo not drawn)	-2
O=C(Nc1cc(S(=O)(=O)N2CCCCC2)ccc1Cl)c1ccccc1NS(=O)(=O)c1ccc(F)cc1	11
COCCN(C(=O)CCC(=O)Nc1nccs1)C(C(=O)NC(C)(C)C)c1ccc(Cl)cc1 (stereo not drawn)	17
CC(NC(=O)COC(=O)/C=C/c1cccc(C(F)(F)F)c1)c1ccccc1 (stereo not drawn)	9
CCc1cccc(C)c1NC(=O)c1ccccc1	18
